# Arbovirus inh: antivirals against arbovirus infection | 0.37% of 200,000 active | inhibition, % at 10 µM | arbovirus infection cell-based antiviral screen;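 active = inhibition from about 30%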;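 also: bluetongue infection of BSR cells; cell survival read as ATP light after 72 h; 0% = infected wells without compound and 100% = uninfected wells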
# RecA splice inh: blocks M. tuberculosis RecA intein splicing | P9WHJ3 | cell-free RecA intein splicing, fluorescence | inhibition, %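 (about 9 µM by stock and volumes)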 | 0.75% of 290,000 active; in the data active = inhibition above about 30%; inconclusive = no clear call, values can overlap the other calls;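 also: 0% = vehicle wells and 100% = reference inhibitor control wells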
# Target sequence (P9WHJ3 whole entry, looked up, canonical isoform): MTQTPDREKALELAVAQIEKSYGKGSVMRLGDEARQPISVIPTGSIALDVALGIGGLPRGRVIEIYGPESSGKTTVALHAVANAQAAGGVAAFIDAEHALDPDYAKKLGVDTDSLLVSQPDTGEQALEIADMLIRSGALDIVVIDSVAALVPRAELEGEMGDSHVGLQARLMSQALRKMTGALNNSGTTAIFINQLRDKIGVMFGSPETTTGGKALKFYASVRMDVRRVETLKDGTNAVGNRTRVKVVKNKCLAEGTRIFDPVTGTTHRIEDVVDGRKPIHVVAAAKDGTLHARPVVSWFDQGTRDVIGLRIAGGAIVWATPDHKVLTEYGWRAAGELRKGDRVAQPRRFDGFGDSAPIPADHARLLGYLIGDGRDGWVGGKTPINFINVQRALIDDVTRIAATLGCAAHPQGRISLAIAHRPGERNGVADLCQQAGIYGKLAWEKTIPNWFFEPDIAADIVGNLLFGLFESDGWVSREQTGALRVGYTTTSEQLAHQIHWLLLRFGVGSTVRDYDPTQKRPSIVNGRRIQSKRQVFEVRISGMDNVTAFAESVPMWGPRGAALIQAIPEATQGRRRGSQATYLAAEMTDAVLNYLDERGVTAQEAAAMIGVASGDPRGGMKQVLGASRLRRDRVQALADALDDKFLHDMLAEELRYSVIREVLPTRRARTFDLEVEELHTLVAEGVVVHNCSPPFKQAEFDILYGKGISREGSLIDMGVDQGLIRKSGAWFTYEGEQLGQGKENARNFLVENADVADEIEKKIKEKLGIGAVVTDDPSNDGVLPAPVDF
# Mtb H37Rv: M. tuberculosis H37Rv growth inhibitors, H37Rv strain (AID 1626) | M. tuberculosis H37Rv growth inhibition; higher % means a stronger effect | inhibition, % at 10 µM; hits with a dose series show IC50 in µM | 0.95% of 220,000 active;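 active = confirmed in a dose series; inconclusive = inhibition above 80% but not taken into the dose series; inactive = below 80% or under 30% at every dose of the series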;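 also: bacteria incubated seven days before Alamar blue readout; 0% = bacteria only wells and 100% = bacteria with antibiotic wells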
# YopH PTP inh: blocks Yersinia enterocolitica YopH tyrosine phosphatase; fluorescence Ex485/Em525; inhibition, %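 (about 10 µM by stock and volumes)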; 0.16% of 140,000 active; AID 898;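 active = inhibition of 50% or more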;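 also: controls were vehicle for no effect and minimum signal wells for full effect; inactives centre near -20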
# Mtb betalactam: beta-lactam sensitization of Mtb H37Rv; AID 434955; M. tuberculosis H37Rv growth with meropenem, percent inhibition; hits of this screen are not shown here; inhibition, % at 25 µM; 0.27% of 330,000 active;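 active = about 74% or more and at least 40 points above the plate without the antibiotic, then above 30% in a dose series; inconclusive = first-round hits that could not be retested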;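 also: growth measured after seven days incubation then overnight dye step; 0% = bacteria only wells and 100% = bacteria with antibiotic; twin plates without the antibiotic show which effects depend on it; some results filed as inactive read as strong as hits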
# Arbovirus inh repeat: also measured in Arbovirus inh; calls as there; inhibition, %; measured here: 10K subset replicate screen; many hits read low in the repeat;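 first of two repeat runs on a subset; 0% = infected and 100% = uninfected wells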
# An asterisk follows results filed as active; ? = inconclusive; · = not tested or not shown. A portion of the library; the hit share may differ from the screen's.
SMILES,Arbovirus inh,RecA splice inh,Mtb H37Rv,YopH PTP inh,Mtb betalactam,others
CCN(CC)CCN(C(=O)c1ccc2ccccc2c1)c1nc2cc3c(cc2s1)OCO3,·,8.3,·,·,-3,
O=C1CCCN1CCCNS(=O)(=O)c1ccc(Cl)c(C(=O)N2CCOCC2)c1,1,5.0,-11%,-7,-14,
NC(=O)Cc1nc(-c2ccc([N+](=O)[O-])cc2)cs1,0,-1.0,-7%,·,2,
CCOC(=O)[C@@H]1[C@H]2COc3cc(OC)ccc3[C@H]2N2C(=O)N(c3ccc(C(F)(F)F)cc3)C(=O)[C@@]12C,·,-3.6,·,·,0,
CCN(CC(=O)NCc1ccccc1Cl)CC(=O)Nc1c(F)cccc1F,·,2.2,-6%,·,-1,
Cc1ccccc1NC(=O)CCCNC(=O)c1ccc(Cl)cc1,·,0.4,·,·,2,
CC1CCc2sc3ncn4nc(C(=O)NCc5ccco5)nc4c3c2C1 (stereo not drawn),2,-1.2,·,-24,0,
O=C(COc1ccccc1Cl)NCc1nc(-c2ccccc2)no1,·,0.3,·,·,6,
CC(C)(C)C(=O)Cn1ncc(Cl)c(Cl)c1=O,-29,6.0,-3%,·,·,
Cc1ccc2[nH]c3nc(NN)nnc3c2c1,·,-4.9,·,·,9,
COC(=O)CSc1n[nH]c(-c2cccnc2)n1,10,-2.4,1%,-10,-5,
CCOc1ccc(CCNC(=O)COn2nnc3ccc(S(=O)(=O)N4CCOCC4)cc32)cc1OCC,·,-1.8,·,·,-8,
CS(=O)(=O)N1CCN(c2cccc(Cl)n2)CC1,7,-4.8,-5%,6,2,
Cc1cccc(NC(=O)C[n+]2ccc(N(C)C)cc2)c1,·,1.9,·,·,-1,
CCC(C)NCCOc1ccc(C)cc1[N+](=O)[O-] (stereo not drawn),4,1.7,-4%,·,·,
CN1CCN(S(=O)(=O)c2ccc(NC(=O)c3cccc(S(=O)(=O)N4CCCC4)c3)cc2)CC1,10,-0.2,-10%,-41,3,Arbovirus inh repeat=6
Cc1cc(S(=O)(=O)N2CCCCCC2)c(Cl)cc1Cl,-4,4.8,-10%,-16,6,
CCSCCOC(=O)C1=C(C)N(C)C(=O)NC1c1ccc2c(c1)OCO2 (stereo not drawn),·,1.0,·,·,-7,
O=C(O)c1cc(-c2cccnc2)nc2ccccc12,·,1.2,-13%,·,0,
O=C1CC(Cc2ccccc2)C(=O)N1c1ncccn1 (stereo not drawn),0,-2.0,-2%,·,-4,
COc1ccc(N(CC(=O)N2CCCCCC2)S(=O)(=O)c2c(C)[nH]c(=O)[nH]c2=O)cc1,7,3.2,-4%,-26,-3,
COC(CNC(=O)c1cccc2c1C(=O)N(Cc1cccnc1)C2)OC,9,-0.6,-14%,-4,5,
O=C(N/N=C\C=C\c1ccco1)c1cc(-c2ccc3ccccc3c2)n[nH]1,-1,19,0%,-21,99,
Cc1ccc(C(=O)O/N=C/c2c(C)nn(C)c2Cl)cc1,-1,2.9,5%,·,18,
CC(Sc1nnc(-c2cccnc2)n1N)C(=O)N1CCOCC1 (stereo not drawn),·,-0.8,·,·,-7,
CCCN(CCC)CCCNC(=O)c1ccc(CS(=O)(=O)c2c(Cl)cccc2Cl)o1,·,-1.2,·,·,-5,
O=S1(=O)CCOC[C@H](c2ccccc2)N1Cc1ccccc1,·,2.6,·,·,-5,
CC(=O)Nc1ccc2c(c1)CCC2=O,4,-1.2,11%,-124,-3,
O=C(CCN1C(=O)C2C3C=CC(C3)C2C1=O)NC1CCCc2ccccc21 (stereo not drawn),9,0.2,1%,-20,0,
COc1ccc(/C=C2/SC(=O)NC2=O)cc1,-4,-1.1,1%,·,2,
O=C(COC(=O)c1ccc(O)cc1)Nc1ccccc1,·,0.1,·,·,0,
O=C(CN1C(=O)CCSc2ccc(S(=O)(=O)N3CCCC3)cc21)Nc1ccccc1,·,3.4,·,·,-3,
CN1CCCCCC1=Nc1ccc([N+](=O)[O-])cc1,·,-0.7,·,·,-11,
Cn1c(O)c(C=NC2CCN(Cc3ccccc3)CC2)c(=O)[nH]c1=O,·,2.7,-4%,·,-1,
COc1cc(CN=C(C)c2c(O)n(C)c(=O)n(C)c2=O)cc(OC)c1,·,-0.8,1%,·,1,
C#CCOCCOCCOCCNc1nc(N2CCN(C(=O)[C@H]([C@@H](C)CC)n3cc([C@@H](N)CC(C)C)nn3)CC2)nc(N2CCN(C(=O)[C@H](CCCCN)n3cc([C@@H](N)CC(C)C)nn3)CC2)n1,-3,3.0,6%,·,49,
CC(Cc1cccs1)NC(=O)Nc1ccc([N+](=O)[O-])cc1 (stereo not drawn),-2,2.0,9%,·,8,
Cc1cc(Cl)ccc1NC(=S)NCCc1ccc(Cl)cc1,·,14,·,·,12,
Cc1cc(=O)oc2cc(OCC(=O)NCC3CCCO3)ccc12 (stereo not drawn),-2,2.1,-1%,·,-3,
CC(=O)Nc1ccc(S(=O)(=O)N(Cc2cccnc2)Cc2cc3ccc(C)cc3[nH]c2=O)cc1,·,-0.2,·,·,1,
CC1(C)CC(=O)C2=C(C1)OC(c1ccncc1)C(C#N)=C2N (stereo not drawn),0,3.1,-7%,13,0,
CC1CCCN(c2ccc(C(=O)NCc3cccs3)cn2)C1 (stereo not drawn),-8,3.2,-2%,-10,0,
O=S1(=O)CCC(NC(=S)SCc2ccccc2Br)C1 (stereo not drawn),-5,·,-4%,·,·,
CCN(CC)C(=O)CSc1nnc(CCCCCNC(=O)OC(C)(C)C)o1,-1,-1.2,-8%,-28,-1,
O=C(NNC(=O)C12CC3CC(CC(C3)C1)C2)c1ccccn1,·,2.1,?,·,97,

# Seven entries picked at random from those above, as already listed:
SMILES,Arbovirus inh,RecA splice inh,Mtb H37Rv,YopH PTP inh,Mtb betalactam,others
O=C(COC(=O)c1ccc(O)cc1)Nc1ccccc1,·,0.1,·,·,0,
CC1CCCN(c2ccc(C(=O)NCc3cccs3)cn2)C1 (stereo not drawn),-8,3.2,-2%,-10,0,
CC(Cc1cccs1)NC(=O)Nc1ccc([N+](=O)[O-])cc1 (stereo not drawn),-2,2.0,9%,·,8,
COc1cc(CN=C(C)c2c(O)n(C)c(=O)n(C)c2=O)cc(OC)c1,·,-0.8,1%,·,1,
O=C(NNC(=O)C12CC3CC(CC(C3)C1)C2)c1ccccn1,·,2.1,?,·,97,
C#CCOCCOCCOCCNc1nc(N2CCN(C(=O)[C@H]([C@@H](C)CC)n3cc([C@@H](N)CC(C)C)nn3)CC2)nc(N2CCN(C(=O)[C@H](CCCCN)n3cc([C@@H](N)CC(C)C)nn3)CC2)n1,-3,3.0,6%,·,49,
Cn1c(O)c(C=NC2CCN(Cc3ccccc3)CC2)c(=O)[nH]c1=O,·,2.7,-4%,·,-1,

# New compounds follow.
SMILES,Arbovirus inh,RecA splice inh,Mtb H37Rv,YopH PTP inh,Mtb betalactam,others
COc1ccccc1CNC(=O)C1CCC(CNc2c(N3CCC(C)CC3)c(=O)c2=O)CC1 (stereo not drawn),·,-0.9,0%,·,-1,
CCOC(CNC(=O)c1ccc(N2CCc3ccccc32)c([N+](=O)[O-])c1)OCC,3,3.0,12%,-17,-2,
CCOC(=O)c1sc(NC(=O)CSc2nc3c(c(=O)n2-c2ccc(F)cc2)SCC3)c(C(=O)OCC)c1C,-3,·,7%,-2,·,
CCN1CCN(C(=S)Nc2ccc3nc(N4CCN(C)CC4)cc(C)c3c2)CC1,15,-4.8,2%,-45,0,
O=C(Nc1ccccc1F)c1ccc(Cn2cc(Br)cn2)cc1,-27,0.9,44%,·,36,
Clc1ccc(CNCCCSc2ncccn2)cc1,·,-1.2,·,·,2,
Cc1ccc(CSCCNC(=O)c2ccc(NS(C)(=O)=O)cc2)cc1,3,7.4,0%,·,-7,
Cc1cc(N)n2ncc(-c3cccc(Br)c3)c2n1,-1,·,23%,-46,86,Arbovirus inh repeat=2
CCOC(=O)c1c(NC(=O)C2COc3ccccc3O2)sc(C(C)=O)c1C (stereo not drawn),3,4.2,-3%,-23,9,
COc1cc(CN2CCNC(=O)C2CC(=O)NC2CCC2)cc(OC)c1 (stereo not drawn),·,-0.7,·,·,6,
O=[N+]([O-])c1ccccc1S(=O)(=O)N1CCN(Cc2ccc3c(c2)OCO3)CC1,-3,-4.9,0%,·,1,
CCOc1ccc(N2C(=O)S/C(=C\c3cccn3C)C2=O)cc1,-12,1.3,3%,-3,4,
O=C(Nc1cccc(O)c1)C(=O)Nc1ccccn1,11,-0.4,2%,-15,7,
COc1cc2c(cc1OC)C(c1ccccc1OC(C)C)CC(=O)N2 (stereo not drawn),·,-4.7,·,·,-5,
O=C(O)CC(NC(=O)COc1ccccc1)c1cccc([N+](=O)[O-])c1 (stereo not drawn),2,-1.6,0%,·,-5,
NS(=O)(=O)c1ccc(CCNC(=O)c2cccc(OC(F)F)c2)cc1,4,0.0,2%,·,4,
CCOC(=O)c1c(C)n(C(C)C)c2ccc(OC(=O)c3ccc(N4C(=O)CCC4=O)cc3)cc12,5,-1.2,2%,-2,10,
O=C(NCC1OCCc2ccccc21)c1ccco1 (stereo not drawn),3,-2.0,1%,-90,-3,Arbovirus inh repeat=6
CN(C)S(=O)(=O)c1ccc(N2CCCC2)c(C(=O)N2CCC(C(N)=O)CC2)c1,·,2.2,·,·,-1,
Cc1cc(Cl)nc(-c2ccccc2O)n1,·,-1.1,-5%,·,1,
COC(=O)CSc1nnc(-c2ccccn2)n1N,·,-6.1,-3%,·,-3,
FC(F)(F)c1cc(CCN2C(=S)NC[C@@H]2CC2CCCCC2)cc(C(F)(F)F)c1,·,0.2,-2%,·,-10,
COC(=O)c1ccc(NC(=S)NC2CCCCC2)cc1,19,4.4,4%,-16,18,
Cc1ccccc1CCN1CCCC(CN(C)CC(C)(C)C)C1 (stereo not drawn),·,1.2,·,·,-3,
Cn1c(=O)c2c(ncn2CC(=O)N2CCc3ccccc3C2)n(C)c1=O,4,-0.4,0%,-42,-3,
COc1ccc(Cl)cc1NC(=O)C/C(C)=N/NC(=O)c1ccc(O)cc1,·,6.2,·,·,18,
Cc1ccc(NC(=O)CCc2ccc(C)o2)cc1,·,1.1,·,·,32,
O=C1NC(=O)N(Cc2ccc(F)cc2)C(=O)/C1=C/c1cccs1,1,3.0,8%,·,6,
Cn1c(Nc2ccc(Cl)cc2)cc(=O)n(C)c1=O,·,-2.2,·,·,-3,
COc1cc(S(=O)(=O)N2CCOCC2)ccc1NC(=O)CN1c2cccc3cccc(c23)S1(=O)=O,5,-5.0,-1%,-6,-12,
CC(=O)Nc1ccc(NC(=O)CCCSc2nc3ccccc3[nH]2)cc1,·,-5.3,-8%,·,0,
CCCN1CNc2c(c(=O)[nH]c(=S)n2CCc2ccccc2)C1,5,-0.8,-7%,·,-14,
COc1cccc2[nH]c(C(=O)NCCCN3CCCC3=O)cc12,·,-1.3,·,·,4,
Cc1ccc(/C(O)=C/c2nc3ccccc3oc2=O)cc1,·,-2.3,?,·,98,
Cc1ccc(CNC(=O)CNC(=O)[C@@H]2Cc3ccccc3CN2C(=O)OC(C)(C)C)cc1,·,0.4,·,·,3,
COc1ccc(CCNCC(O)c2ccccc2)cc1 (stereo not drawn),31*,-0.6,-13%,·,-2,
Cc1[nH]c2ccccc2c1/C=C/c1cc[n+](C)cc1,-13,·,·,-20,·,
CCCNS(=O)(=O)c1cc(Br)cc2c1N(C(=O)CC)CC2,2,1.9,-4%,-32,-4,
O=S(=O)(c1cccc(-c2nnco2)c1)N1CCCC1,3,·,-8%,-108,3,
Cc1cc(C)c(NS(=O)(=O)c2ccc3c(c2)NC(=O)C(C)C(=O)N3)c(C)c1 (stereo not drawn),·,0.1,·,·,8,
CCCN1CCC(NCc2cn(C)nc2-c2ccc(Oc3ccccc3)cc2)CC1,·,-13,7%,·,-13,
CCOC(=O)c1[nH]c(C)c(C(=O)/C=C/c2ccc(C(=O)O)cc2)c1C,·,-0.1,·,·,1,
CCN(CC)c1ccc(NC(=O)Cn2c(C(C)NC(=O)c3ccc(C)cc3)nc3ccccc32)cc1 (stereo not drawn),-2,-5.9,-5%,·,·,
CC(C)N1CCN(Cc2cnc(-c3ccccc3)s2)CC1CCO (stereo not drawn),·,2.8,0%,·,-3,
O=C(c1ccco1)N1CCN(S(=O)(=O)c2ccc(C3CCCCC3)cc2)CC1,5,3.1,-5%,-34,-5,
OCCC1CN(Cc2ccc3ncccc3c2)CCN1Cc1ccccc1 (stereo not drawn),2,·,3%,·,-3,
CCN1CCN(C(=O)/C=C\C(=O)O)CC1,11,-1.8,11%,11,-12,
Cc1nc2ccccc2c2oc(C(=O)N3CCC(N4CCCCC4)CC3)cc12,2,·,10%,-28,-4,Arbovirus inh repeat=-1
O=S(=O)(NNc1ccc(Cl)nn1)c1ccc(F)cc1,-10,-6.2,-8%,-23,1,
C#CCNC(=O)C1=C[C@@H](c2ccc(C#C)cc2)C[C@@H](OCCCCO)O1,·,7.9,-8%,·,-9,
